Bioassay records from PubChem.
T cruzi repl: T. cruzi replication inhibition | T. cruzi beta-gal in NIH3T3, luminescence, 90 h | inhibition, % (concentration not given with the values) | hit rate 1.4% among 300,000 | AID 1885;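 active = mean inhibition across valid replicates above about 55%, limit read from the data; inconclusive = mean below that limit but half or more replicates reach it; inactive = mean below it, under half of replicates reach it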;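 also: signal also drops with host cell toxicity which is not excluded here; 0% = plate median of DMSO wells and 100% = zero luminescence signal; higher percent means less beta-gal luminescence so fewer parasites; stock transfer was 50 nL into about 50 µL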
Beta apoptosis: blocks beta cell apoptosis; protection from apoptosis, % (no concentration beside the values); hit rate 0.8% among 300,000; AID 435005; INS-1E cytokine-induced death, ATP luminescence, 48 h; percent of positive-control rescue, neutral wells zero;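 active = all replicates at 75% or more, or half of them and the mean; inconclusive = half reach 75% but not the mean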;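 also: 0% = cytokine-treated negative control wells and 100% = positive control rescue; higher means more ATP so stronger rescue from cytokine killing; wells of about 40 µL received 100 nL stock; the first replicate is given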
Calb FLC: C. albicans growth modulation with fluconazole; hit rate 0.57% among 300,000; growth inhibition, % (test concentration not listed); C. albicans CaCi-2 (fluconazole-resistant clinical isolate) + fluconazole, Alamar Blue growth, 48 h;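 active = most replicates above 75%; inconclusive = exactly half above 75%; inactive = most below 75%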;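 also: all wells also contain fluconazole at 8 µg/ml as a sub-toxic cotreatment; 0% = median of DMSO wells and 100% = median of geldanamycin control wells; wells of about 8 µL received 7.5 nL stock; the first replicate is given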
Bfl-1 A1 inh: inhibitors of the anti-apoptotic protein A1, read as caspase activation. AID 2462. caspase activation, % (concentration not given with the values). hit rate 0.066% among 330,000. MEF A1-2A-BIM cells, Caspase-Glo 3/7 luminescence, 3 h; percent of clofoctol response, vehicle zero;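 active = over half of replicate activation scores above 10%, or exactly half above 10 with the replicate mean above 10; inconclusive = replicate mean below 10 yet half the replicates above 10; inactive = over half of replicates below 10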;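 also: wells of about 30 µL received 50 nL stock; many hits fall short of the cut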
Beta2AR agonist: agonists of human beta-2 adrenergic receptor inducing internalization. P07550. Am2.2-beta2AR cells, FAP receptor internalization, flow cytometry; reference of the scale not given here. response, % (test concentration not listed). hit rate 0.43% among 340,000. AID 504454;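 active = response above a set limit, near 3 SD of response in nonfluorescent compounds, cut at about 42% in these data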;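 also: stock transfer was 100 nL into about 11 µL; a reference agonist was the positive control; negative values mostly stem from fluorescent compounds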
Target sequence (P07550 whole entry, looked up): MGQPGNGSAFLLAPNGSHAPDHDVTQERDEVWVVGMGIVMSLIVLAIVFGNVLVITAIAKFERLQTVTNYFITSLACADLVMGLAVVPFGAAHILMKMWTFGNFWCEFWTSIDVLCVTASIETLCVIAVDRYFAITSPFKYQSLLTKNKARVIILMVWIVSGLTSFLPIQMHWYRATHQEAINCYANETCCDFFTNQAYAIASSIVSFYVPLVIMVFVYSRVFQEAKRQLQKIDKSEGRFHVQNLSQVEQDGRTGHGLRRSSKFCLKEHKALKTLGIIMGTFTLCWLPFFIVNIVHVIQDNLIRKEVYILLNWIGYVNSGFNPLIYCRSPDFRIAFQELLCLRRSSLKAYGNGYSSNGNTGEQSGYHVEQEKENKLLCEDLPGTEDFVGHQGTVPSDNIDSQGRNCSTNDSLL
LANA-H2A inh: blocks KSHV LANA binding to histone H2A/H2B | Q9QR71 | cell-free LANA-H2A/H2B peptide, fluorescence polarization | inhibition, % (test concentration not listed) | hit rate 0.6% among 320,000 | AID 2629; in the data active = inhibition mostly above about 10%, no sharp cut-off; inactive = mostly below about 6.7%;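 also: stock transfer was 7.5 nL into about 10 µL; 0% = median of vehicle wells and 100% = median of positive control wells; one replicate is shown; the record names a cut of 25% in any replicate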
ALR H2O2 inh: blocks human ALR sulfhydryl oxidase activity; P55789; purified ALR, DTT oxidation, H2O2 HRP-luminol luminescence; inhibition, % (concentration not given with the values); hit rate 3.8% among 290,000;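 active = mean and each replicate at 75% or more; inconclusive = only one of the two met; inactive = neither met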;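 also: stock transfer was 7.5 nL into about 7.5 µL; 0% = neutral wells and 100% = wells with inactivated enzyme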
Target sequence (P55789 whole entry, looked up): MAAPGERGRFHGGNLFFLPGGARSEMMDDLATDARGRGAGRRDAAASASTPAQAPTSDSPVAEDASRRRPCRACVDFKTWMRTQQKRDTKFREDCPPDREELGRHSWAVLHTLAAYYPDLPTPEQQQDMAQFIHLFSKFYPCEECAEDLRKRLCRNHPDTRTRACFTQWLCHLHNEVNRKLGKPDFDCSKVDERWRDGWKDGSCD
rRNA inh HTS: inhibitors of bacterial rRNA selective over humanized ribosomes | E. coli WT GFP vs humanized-ribosome RFP mutants, fluorescence, 24 h; hits give low values; DMSO median 0, no signal -100 | GFP signal change (wild-type ribosome), % (concentration not given with the values) | hit rate 1.6% among 350,000 | AID 720706;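 active = significant combined selectivity score with lowered wild-type GFP, culture density cut under 30%, mutant RFP and density less affected; inactive = any of these conditions unmet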; also: one replicate is shown; some compounds called inactive have numbers as strong as hits
rRNA inh HTS OD600: second read-out of rRNA inh HTS, no call of its own (marks repeat the call); OD600 change, %; measured here: OD600 growth;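 optical density of the mix in the first replicate; 0 = DMSO median and -100 = no signal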
rRNA inh HTS RFP: also measured in rRNA inh HTS; calls as there; RFP signal change, %; measured here: RFP humanized mutant strains;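 first replicate; 0 = DMSO median and -100 = no signal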
* marks the source's active call; other numbers are inactive results; ? = inconclusive; . = not tested or not shown.

SMILES | T cruzi repl | Beta apoptosis | Calb FLC | Bfl-1 A1 inh | Beta2AR agonist | LANA-H2A inh | ALR H2O2 inh | rRNA inh HTS | rRNA inh HTS OD600 | rRNA inh HTS RFP
O=C1C2C3C=CC(C3)C2C(=O)N1Nc1ccc([N+](=O)[O-])cc1[N+](=O)[O-] (centres undefined) | 5 | -4 | 2 | 0.0 | -4 | 16* | . | 12 | 15 | 1.6
COc1ccc(-c2cc(=O)oc3cc4occ(C)c4cc23)cc1 | 19 | 3 | -10 | -0.5 | -11 | -2.8 | -5 | . | . | .
CN(CC(=O)NCC(c1ccccc1)N1CCCC1)S(=O)(=O)c1ccc(Cl)cc1 (centres undefined) | . | -3 | . | -0.5 | 2 | -2.1 | . | 0 | 2 | 5.2
CSc1ncccc1C(=O)OCC(=O)c1cccc(Br)c1 | -7 | . | 9 | -0.3 | 1 | -7.0 | -12 | 4 | 14 | 1.2
O=C1OC(c2ccco2)=N/C1=C\c1ccc(-c2cccc(C(F)(F)F)c2)o1 | -13 | 2 | 3 | 0.3 | 0 | -2.8 | 20 | 2 | -19 | 7.0
Cc1ccc(NC(=O)CSc2nc3ccccc3c(=O)n2CCCC(=O)NCCCN2CCOCC2)cc1 | 3 | 0 | 2 | 0.1 | -5 | 1.3 | 2 | 0 | 8 | -1.2
CN(CCc1nc2ccccc2[nH]1)Cc1nc(CC2CC2)no1 | 7 | 5 | 52 | 1.1 | -2 | 2.4 | -34 | 9 | 11 | 1.8
Cc1cc(NC(=O)c2ccc(Cl)cc2)ccc1NC(=O)c1ccccc1Cl | 11 | 8 | 3 | 0.6 | 0 | 5.9 | -5 | 8 | 10 | -0.1
COCCN1C(=O)N[C@@H](CCc2ccccc2)[C@H](C(=O)OC)[C@H]1C | -9 | -10 | -3 | 0.6 | -2 | 0.2 | 2 | 1 | 4 | -2.7
O=C(N[C@@H](Cc1ccccc1)C(=O)OCc1ccccc1)c1nc[nH]c1C(=O)N1CCN(c2ccccc2)CC1 | -9 | -3 | -6 | -0.4 | 25 | -5.4 | 27 | 6 | -5 | -0.8
CCCc1cc(=O)n2nc(N3CCC(C(=O)NCc4ccc(C)o4)CC3)sc2n1 | 12 | . | 9 | . | -1 | . | 6 | -1 | -1 | 0.8
O=S(=O)(Nc1cccc(-c2cn3c(n2)SCC3)c1)c1ccccc1 | 2 | -16 | -1 | 0.3 | -22 | -3.7 | 8 | -2 | -6 | 0.3
O=C(Nc1cccc(S(=O)(=O)N2CCOCC2)c1)C12CC3CC(CC(C3)C1)C2 | . | 2 | . | 1.1 | -14 | -1.2 | -1 | 3 | 6 | -2.1
CCn1nc(C(=O)OCc2cccc(S(=O)(=O)N(C)C)c2)c2ccccc2c1=O | -12 | -6 | 21 | -1.0 | -2 | -0.2 | . | -25* | -14* | 3.0*
COCCNC(=O)C(=O)NCCN1CCOCC1 | -11 | -4 | -2 | 0.5 | -35 | 0.2 | -8 | . | . | .
O=C1C=C(NCc2ccco2)CCC1 | 2 | -4 | -8 | 0.0 | 6 | 3.6 | . | 2 | -6 | 1.0
CCCCN(C(=O)c1ccc(-c2ccc(Cl)cc2)o1)c1c(N)n(CCC)c(=O)[nH]c1=O | . | 5 | . | 0.2 | 1 | -2.1 | -1 | 12 | 4 | 7.1
CCc1nnc(NS(=O)(=O)c2ccc(NC(=O)OC)cc2)s1 | 9 | -8 | 8 | -0.4 | -4 | -3.4 | 98* | . | . | .
O=C(CSc1nnc(CNC(=O)c2cccs2)o1)Nc1cccc(C(F)(F)F)c1 | 1 | 2 | -1 | 0.9 | -8 | 1.1 | -1 | . | . | .
C(=N\Nc1ccccn1)/c1ccc2c(c1)OCCO2 | 7 | 3 | -30 | 1.2 | -11 | 7.4 | 98* | -25 | -37 | -5.2
O=C(/C=C/C=C/c1ccc2c(c1)OCO2)N1CCCCC1 | . | 2 | . | -2.1 | -4 | 2.3 | 1 | -8 | -4 | -2.7
COC(=O)Cc1ccc(NC(C)=O)cc1 | . | 2 | . | -0.2 | 1 | -1.1 | -2 | 5 | 2 | -0.4
COc1ccc(/C=C2/SC(=O)N(CCNC(=O)C3COc4ccccc4O3)C2=O)cc1 (centres undefined) | -7 | -5 | 9 | -0.5 | -1 | 3.8 | -2 | . | . | .
O=C1CCCN1C(=O)COc1ccc([N+](=O)[O-])cc1 | -24 | -15 | 4 | -0.1 | 2 | -0.1 | -28 | 20 | 15 | -1.4
CC1(c2ccccc2Cl)NC(=O)N(CC(=O)NC(=O)NCc2ccco2)C1=O (centres undefined) | 8 | -1 | -4 | -0.5 | 0 | -0.8 | 4 | . | . | .

Next records
SMILES | T cruzi repl | Beta apoptosis | Calb FLC | Bfl-1 A1 inh | Beta2AR agonist | LANA-H2A inh | ALR H2O2 inh | rRNA inh HTS | rRNA inh HTS OD600 | rRNA inh HTS RFP
CN(C(=O)Cc1c(C(=O)O)n(C)c2ccccc12)c1ccc(F)cc1 | -19 | -2 | -9 | -0.3 | -3 | -1.2 | 1 | 7 | 4 | 1.0
COc1cccc(C2CC(c3cccs3)=NN2C(=S)Nc2ccccc2)c1OC (centres undefined) | 40 | 4 | 19 | 0.2 | 5 | 6.0 | -5 | . | . | .
CCN(CC)CCNC(=O)CCc1nnc2ccc(N3CCC(C)CC3)nn12 | -5 | -7 | -1 | 0.1 | -7 | -5.4 | 15 | 3 | 18 | 0.1
FC(F)(F)c1ccc(Cl)c(-n2c(Cc3cccs3)n[nH]c2=S)c1 | -12 | 10 | -4 | 0.0 | 2 | 5.7 | 59 | -33* | -19* | 3.2*
CN(Cc1ccccc1Cl)C(=O)C1CCC(=O)N(C2CCCCCC2)C1 (centres undefined) | 3 | . | -22 | . | 0 | . | . | -1 | -3 | -1.8
COc1ccc2c(c1)C(SCC(=O)NCCc1ccc(Cl)cc1)CC(C)(C)O2 (centres undefined) | 29 | 2 | 9 | 0.5 | 15 | -6.2 | -10 | -25 | -49 | -5.0
COc1ccc(CNC(=O)Cn2cccc2C(=O)c2ccccc2)cc1 | 1 | -3 | -10 | 0.6 | 4 | 4.3 | -2 | -1 | 0 | -0.8
Cc1[nH]c(=O)c(C#N)c(C)c1[N+](=O)[O-] | 0 | 4 | 1 | 0.5 | 2 | 13* | . | -6 | 8 | -0.3
O=C(Cc1cccc(NC(=O)C2CCCN(C(=O)C3CCC3)C2)c1)Nc1cccc(C(=O)N2CCCC2)c1 (centres undefined) | . | -4 | . | 0.3 | -11 | -6.8 | 0 | -12 | 6 | 6.4
COc1ccccc1-n1c(SCC(=O)Nc2ccc(C)cc2)nc(O)cc1=O | 4 | -7 | 0 | 0.3 | -8 | 2.4 | 98* | . | . | .
CSc1nnc(-c2cc3c(s2)-c2ccccc2CC3)o1 | 7 | 2 | 7 | -0.9 | 2 | 0.0 | -10 | . | . | .
C=CCn1c(SCC(=O)NC2CCS(=O)(=O)C2)nc2scc(C3CC3)c2c1=O (centres undefined) | -13 | . | ? | 0.8 | 4 | -7.0 | 11 | . | . | .
O=C(Nc1c2c(nn1-c1ccccc1)CS(=O)(=O)C2)c1ccccc1C(F)(F)F | ? | -3 | -3 | -0.2 | -2 | -2.2 | -5 | -4 | 1 | -0.9
COc1cccc(-c2ocnc2C(=O)Nc2ccc(N3CCOCC3)cc2N2CCOCC2)c1 | 11 | -10 | 15 | -0.6 | 2 | -4.1 | . | -8 | -5 | 1.1
N/C(=N\OC(=O)CCCOc1ccccc1)c1ccc([N+](=O)[O-])cc1 | -9 | . | -11 | -0.2 | 3 | 1.7 | -5 | 16 | 14 | -1.0
Cc1cc(OCc2cc(C(=O)N3CCN(C)C(=O)[C@@H]3C)no2)cc(C)c1Cl | -11 | 9 | 39 | -0.2 | 0 | 1.5 | 1 | -21 | -16 | -5.5
CC(C)Oc1ccc(CNC(=O)CC(c2ccccc2)c2cc(Cl)ccc2O)cc1 (centres undefined) | 56* | 15 | 31 | 0.4 | 4 | 0.0 | -9 | . | . | .
Cc1ccc2nc(N(CCCN(C)C)C(=O)c3ccc(Br)s3)sc2c1 | 62* | -3 | 17 | -0.3 | 54* | 6.7 | -7 | -14 | -1 | 27
COCc1cc(C)n(CC(=O)NCc2ccccc2)c(=O)c1C#N | -5 | -1 | -6 | 0.5 | 4 | 0.5 | -19 | 4 | 15 | 0.0
O=S(=O)([N-]c1nc2ccccc2nc1-[n+]1ccccc1)c1ccc(Cl)cc1 | 15 | -8 | 9 | -0.5 | 3 | -5.1 | 2 | . | . | .
COc1cccc(C(=O)NCC2(c3ccccc3)CCCC2)c1 | -15 | 5 | 32 | 0.0 | -12 | 1.6 | 3 | -30 | -30 | -3.3
CCOc1ccc(C(C)=O)cc1COC(=O)c1cnc(Cl)c(Cl)c1 | 0 | 6 | -2 | 0.5 | 10 | 1.9 | 2 | 5 | 3 | -2.3
COc1ccc(NS(=O)(=O)c2cccc3nonc23)c(OC)c1 | 12 | -7 | 18 | 1.2 | 10 | -2.0 | 0 | 2 | 7 | -2.7
CC(NC(=O)OCc1ccccc1)C(=O)N1CC(O)CC1C(=O)O (centres undefined) | -9 | . | -2 | . | 7 | 14 | . | . | . | .
COCCn1c(=S)[nH]c2sc3c(c2c1=O)CCCC3 | -52 | -5 | 12 | 0.2 | 0 | 4.2 | 14 | -2 | -11 | 1.2
c1ccc(-n2nnc3cnccc32)cc1 | -10 | -5 | -1 | -0.5 | 0 | 1.6 | -8 | . | . | .
COc1ccccc1N(CC(=O)NC(C)(C)C)C(=O)C1CSC(=O)C1 (centres undefined) | -18 | -5 | -13 | -0.5 | 4 | -1.0 | -8 | . | . | .
Cc1cc(C)c(OCC(=O)Nc2ccc(S(=O)(=O)N3CCCC3)cc2)c(C)c1 | 13 | 3 | 8 | 0.4 | 3 | 0.4 | -3 | -1 | 5 | 1.9

These rows are one share of the data; count on the stated rates, not on these rows.
